DUX4 txn inh: blocks DUX4-driven transcriptional activation; 0.8% of 37,000 active; 293T-iDUX4 ZSCAN4-Gaussia luciferase reporter, 24 h; hits give low values; activity change, negative = inhibition, % (no concentration beside the values);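 active = -10% or lower and over 25 points stronger than a control reporter; inconclusive = -10% or lower with a smaller gap; inactive = above -10%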;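 note: 0% = median of neutral control wells and -100% = median of positive control wells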
DUX4 txn inh difference: also measured in DUX4 txn inh; calls as there; Gaussia minus Italica difference, %; measured here: selective DUX4 reporter inhibition;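 worked out from the two reporters; negative = selective loss of the DUX4 reporter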
DUX4 txn inh control: also measured in DUX4 txn inh; calls as there; activity change, negative = inhibition, %; measured here: Italica tet-on control reporter;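 0 = neutral control and -100 = positive control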
* marks the source's active call; other numbers are inactive results; ? = inconclusive; nt = not tested or not shown; ! = not confirmed by another sample. Some of the compounds tested (hit frequency here may not be typical).

DUX4 txn inh,Structure,DUX4 txn inh difference,DUX4 txn inh control
2,O=S(=O)(Cc1ccccc1)NCC[C@@H]1CC[C@H](NS(=O)(=O)c2ccc(F)cc2)[C@@H](CO)O1,4,-2.0
-5,Cc1noc(C)c1NC(=O)N(C)C[C@H]1Oc2c(NS(=O)(=O)c3ccc(Cl)cc3)cccc2C(=O)N([C@@H](C)CO)C[C@@H]1C,-8,3.2
0,C[C@@H]1CC=CC[C@H](c2cccc(Cl)c2)NC(=O)[C@H](C)N(C)C(=O)c2ccccc2O1 (mixture of isomers),2,-2.7
-1,CCCNC(=O)[C@H]1[C@H](CO)[C@H]2Cn3c(ccc(-c4ccccc4)c3=O)[C@@H]1N2C(=O)C1CC1,-3,2.1
9,COC(=O)[C@H]1[C@H](CO)[C@H]2Cn3c(cccc3=O)[C@H]2N1C(=O)C1CCCCC1,5,4.4
0,C[C@@H]1CN([C@@H](C)CO)C(=O)Cc2cc(NS(C)(=O)=O)ccc2O[C@@H]1CN(C)Cc1ccc(C(F)(F)F)cc1,-3,2.3
-1,CCCNC(=O)N1C[C@@H]2[C@H](c3ccccc31)[C@H](CO)N2Cc1cccc(OC)c1,-2,1.2
6,CCC(=O)Nc1ccc2c(c1)C(=O)N(C)C[C@H](OC)[C@@H](C)CN(C(=O)c1ccc(F)cc1)[C@H](C)CO2,2,4.7
5,O=C1[C@H](Cc2ccc(C(F)(F)F)cc2)CCn2nncc2COC[C@@H]2CCCCN12,7,-2.1
-1,C[C@@H]1CN([C@@H](C)CO)C(=O)c2cccc(NC(=O)c3nc4ccccc4s3)c2O[C@H]1CN(C)C(=O)Nc1ccc2c(c1)OCO2,-1,-0.7

Compound profiles, as listed above. Order of screens: DUX4 txn inh	DUX4 txn inh difference	DUX4 txn inh control
CCCNC(=O)[C@H]1[C@H](CO)[C@H]2Cn3c(ccc(-c4ccccc4)c3=O)[C@@H]1N2C(=O)C1CC1 in the list: -1	-3	2.1
Cc1noc(C)c1NC(=O)N(C)C[C@H]1Oc2c(NS(=O)(=O)c3ccc(Cl)cc3)cccc2C(=O)N([C@@H](C)CO)C[C@@H]1C in the list: -5	-8	3.2

Laid out differently: entries from further up.
structure,DUX4 txn inh,DUX4 txn inh difference,DUX4 txn inh control
COC(=O)[C@H]1[C@H](CO)[C@H]2Cn3c(cccc3=O)[C@H]2N1C(=O)C1CCCCC1,9,5,4.4
C[C@@H]1CN([C@@H](C)CO)C(=O)Cc2cc(NS(C)(=O)=O)ccc2O[C@@H]1CN(C)Cc1ccc(C(F)(F)F)cc1,0,-3,2.3
CCCNC(=O)N1C[C@@H]2[C@H](c3ccccc31)[C@H](CO)N2Cc1cccc(OC)c1,-1,-2,1.2
CCC(=O)Nc1ccc2c(c1)C(=O)N(C)C[C@H](OC)[C@@H](C)CN(C(=O)c1ccc(F)cc1)[C@H](C)CO2,6,2,4.7
O=C1[C@H](Cc2ccc(C(F)(F)F)cc2)CCn2nncc2COC[C@@H]2CCCCN12,5,7,-2.1

(continued)
DUX4 txn inh,Structure,DUX4 txn inh difference,DUX4 txn inh control
0,COc1ccccc1NC(=O)N1[C@H](CO)[C@@H](c2ccccc2)[C@@H]1C#N,2,-1.7
?,N#C[C@H]1[C@@H](c2ccccc2C2=CCCCC2)[C@@H](CO)N1S(=O)(=O)c1ccccc1,nt,nt
-4,CNC(=O)C[C@@H]1CC[C@@H]2[C@@H](COc3ccc(NC(=O)NC4CCCC4)cc3C(=O)N2C)O1,1,-4.7
?,O=C([C@@H]1N[C@@H]2c3ccc(C4=CCCCC4)c(=O)n3C[C@@H]2[C@H]1CO)N1CCC(Cc2ccccc2)CC1,nt,nt
19,CN1c2ccc(Br)cc2[C@@H]2[C@@H](CCN2C(=O)C2CCC2)[C@@H]1CO,17,1.7
2,C[C@H]1C/C=C\C[C@@H](c2ccc3c(c2)OCO3)NC(=O)[C@H](c2ccccc2)CC(=O)N1,0,2.4
7,COc1ccc2c3c([nH]c2c1)[C@@H](CO)N(C(=O)NC(C)C)CC31CN(C(=O)C2CCCC2)C1,6,0.3
4,CC(C)NC(=O)Nc1ccc2c(c1)CC(=O)N([C@H](C)CO)C[C@@H](C)[C@@H](CN(C)Cc1ccncc1)O2,-1,5.0
9,COc1ccc2c3c(n(C)c2c1)[C@H](CO)N(Cc1ccccc1F)CC31CCN(C(=O)C2CCOCC2)CC1,5,4.0
3,COCC(=O)N1[C@@H](C#N)[C@@H](c2ccc(C3=CCCCC3)cc2)[C@@H]1CO,0,2.3
7,CN(C)CC#Cc1ccc([C@H]2[C@@H](CO)N3C(=O)CN(C(=O)c4ccccc4)C[C@@H]23)cc1,-3,9.7
1,COc1ccc(NC(=O)Nc2ccc3c(c2)[C@@H]2C[C@H](CC(=O)N4CCc5ccccc5C4)O[C@@H](CO)[C@@H]2O3)cc1,3,-2.6
4,O=C(CN1CCOCC1)N[C@@H]1CC[C@H](CCNC(=O)Nc2cc(F)ccc2F)O[C@H]1CO,2,1.9
-6,COc1ccc(NC(=O)N(C)C[C@H]2Oc3ccc(NC(=O)C4CCCCC4)cc3CC(=O)N([C@@H](C)CO)C[C@H]2C)cc1,-6,0.1
3,COc1ccccc1NC(=O)N1C[C@@H]2[C@H](c3ccccc31)[C@@H](CO)N2CC1CCCC1,-4,6.1
-2,CCC(=O)N(CC(C)C)C[C@@H]1[C@@H](c2ccccc2)[C@H](CO)N1C(=O)C1CCC1,2,-4.6
-1,CO[C@@H]1CN(C)C(=O)c2ccc(NC(=O)c3ccc(F)cc3)cc2OC[C@H](C)N(C(=O)CN(C)C)C[C@@H]1C,-10,8.9
-3,COc1cccc(CNC(=O)C[C@H]2CC[C@H]3[C@H](COc4ccc(NS(=O)(=O)c5ccccc5F)cc4C(=O)N3C)O2)c1,-5,2.2
2,CO[C@@H]1CN(C)C(=O)c2ccc(NS(=O)(=O)CC(F)(F)F)cc2OC[C@@H](C)N(C(=O)c2ccc3c(c2)OCO3)C[C@H]1C,0,2.2
-1,COCC#Cc1ccc2c(c1)O[C@H](CN(C)Cc1ccccc1F)[C@H](C)CN([C@@H](C)CO)S2(=O)=O,-4,3.3
9,COc1ccc2c3c(n(C)c2c1)[C@H](CO)N(C)CC31CN(S(=O)(=O)c2cccc(F)c2)C1,1,8.3
-5,C[C@@H]1CN([C@H](C)CO)C(=O)c2cc(N(C)C)ccc2O[C@@H](C)CCCCO[C@H]1CN(C)S(C)(=O)=O,-3,-2.3
6,CO[C@@H]1CN(C)C(=O)c2ccc(NS(=O)(=O)c3ccc(C)cc3)cc2OC[C@@H](C)N(C)C[C@@H]1C,0,5.7
-5,C/C=C/c1ccc([C@H]2[C@H](CO)N(C(C)=O)[C@H]2CN(CC)C(=O)CN(C)C)cc1,-5,-0.7
-6,C[C@H]1CNC(=O)[C@@H](Cc2ccc(C(F)(F)F)cc2)CCn2nncc2COC1,-5,-0.9
7,COc1ccc2c3c([nH]c2c1)[C@H](CO)N(C(=O)c1ccccc1)CC31CCN(C(=O)NC(C)C)CC1,-5,12
14,C/C=C/c1ccc([C@H]2[C@H]3CN(C(=O)Nc4ccc(OC)cc4)CCCCN3[C@H]2CO)cc1,3,11
-1,CO[C@@H]1CN(C)C(=O)c2cc(NS(C)(=O)=O)ccc2OC[C@H](C)N(C(=O)NC(C)C)C[C@H]1C,-6,5.1
-36*!,Cc1ccccc1-c1ccc(C2[C@@H]3CN(S(=O)(=O)c4ccccc4C)C[C@H]2N3)cc1 (stereo partly specified),-31*!,-5.3*!
18,Cc1noc(C)c1NC(=O)N(C)C[C@@H]1OCc2ccccc2-c2ccccc2C(=O)N([C@@H](C)CO)C[C@H]1C,13,5.4
2,CNC(=O)C[C@H]1CC[C@H]2[C@H](COc3ccc(NC(=O)c4ccccc4F)cc3C(=O)N2C)O1,1,1.2
2,C[C@@H]1CCCCO[C@@H](CN(C)Cc2ccncc2)[C@@H](C)CN([C@H](C)CO)C(=O)c2cc(NS(=O)(=O)c3ccc(Cl)cc3)ccc2O1,0,1.1
-1,C[C@H]1CC=CC[C@@H](c2ccc(F)cc2)NC(=O)[C@H](C)N(C)C(=O)c2ccccc2O1 (mixture of isomers),-1,0.5
?,CCC(=O)N1CC[C@H]2[C@@H]1c1cc(C#Cc3ccccc3OC)ccc1N(C)[C@H]2CO,nt,nt
6,CCC(=O)N1CC(=O)N2[C@@H](CO)[C@H](c3ccc(C#CCC(C)C)cc3)[C@@H]2C1,2,3.9
-2,CCCNC(=O)N1[C@H](C#N)[C@H](c2ccccc2-c2cccc(OC)c2)[C@@H]1CO,8,-9.9
24,COc1ccc2c3c(n(C)c2c1)[C@H](CO)N(C(=O)CC1CC1)CC31CCN(C(=O)C2CCC2)CC1,16,7.7
?,CC(C)NC(=O)N1CCCCN2[C@H](CO)[C@@H](c3ccc(C#Cc4ccccc4F)cc3)[C@H]2C1,nt,nt
?,O=C(C1CCCCC1)N1C[C@@H]2N[C@H](C1)C2c1ccc(-c2ccccc2F)cc1 (stereo partly specified),-19,14
1,CN(C)CC(=O)N[C@H]1CC[C@H](CCNS(=O)(=O)c2ccccc2)O[C@H]1CO,2,-0.8

Exported with the structure last: part of the list above.
DUX4 txn inh	DUX4 txn inh difference	DUX4 txn inh control	structure
7	-5	12	COc1ccc2c3c([nH]c2c1)[C@H](CO)N(C(=O)c1ccccc1)CC31CCN(C(=O)NC(C)C)CC1
14	3	11	C/C=C/c1ccc([C@H]2[C@H]3CN(C(=O)Nc4ccc(OC)cc4)CCCCN3[C@H]2CO)cc1
-1	-6	5.1	CO[C@@H]1CN(C)C(=O)c2cc(NS(C)(=O)=O)ccc2OC[C@H](C)N(C(=O)NC(C)C)C[C@H]1C
-36*!	-31*!	-5.3*!	Cc1ccccc1-c1ccc(C2[C@@H]3CN(S(=O)(=O)c4ccccc4C)C[C@H]2N3)cc1 (stereo partly specified)
18	13	5.4	Cc1noc(C)c1NC(=O)N(C)C[C@@H]1OCc2ccccc2-c2ccccc2C(=O)N([C@@H](C)CO)C[C@H]1C

Additional results follow.
DUX4 txn inh,Structure,DUX4 txn inh difference,DUX4 txn inh control
-5,CCCC(=O)Nc1ccc2c(c1)OC[C@H](C)N(Cc1nccs1)C[C@@H](C)[C@@H](OC)CN(C)C2=O,-2,-2.8
2,N#C[C@H]1[C@@H](c2ccccc2-c2ccccc2F)[C@@H](CO)N1C(=O)C1CC1,2,0.1
8,COc1ccc2c3c([nH]c2c1)[C@H](CO)N(C(=O)C1CC1)CC31CCN(C(=O)c2ccncc2)CC1,5,2.8
9,COc1ccccc1C#Cc1cnc2c(c1)C(=O)N([C@H](C)CO)C[C@H](C)[C@H](CN(C)C(=O)CN(C)C)O2,-1,9.8
11,C[C@H]1CN([C@@H](C)CO)C(=O)c2ccccc2-c2ccccc2CO[C@H]1CN(C)C(=O)Nc1ccc2c(c1)OCO2,11,0.6
3,CCCNC(=O)N1C[C@H](O)COC[C@@H]2O[C@@H](CC(=O)NCc3ccc(Cl)c(Cl)c3)CC[C@H]21,8,-5.3
0,N#C[C@@H]1[C@H](c2ccc(C#Cc3cccc(F)c3)cc2)[C@H](CO)N1C(=O)C1CCOCC1,-1,0.3
-1,CC=Cc1ccc2n(c1=O)C[C@H]1[C@H](CO)[C@@H](C(=O)Nc3ccc(-c4ccccc4)cc3)N(CCC)[C@@H]21 (mixture of isomers),-12,11
-2,CC(C)NC(=O)N(C)C[C@@H]1OCCCC[C@H](C)Oc2ccc(NS(C)(=O)=O)cc2C(=O)N([C@@H](C)CO)C[C@@H]1C,0,-2.0
-6,Cc1ccccc1S(=O)(=O)N1C[C@@H]2[C@H](c3ccccc31)[C@H](CO)N2C(=O)CC1CC1,-5,-0.4
5,COc1ccc2c3c(n(C)c2c1)[C@@H](CO)N(CC1CC1)CC31CCN(S(=O)(=O)c2cn(C)cn2)CC1,-4,9.0
-1,COc1ccccc1NC(=O)N(C)C[C@@H]1OCc2cnnn2CCCC(=O)N([C@H](C)CO)C[C@@H]1C,-3,2.0
-2,CC(C)NC(=O)Nc1cccc2c1O[C@H](CN(C)C(=O)Nc1ccccc1)[C@H](C)CN([C@H](C)CO)C2=O,-2,-0.7
11,CCS(=O)(=O)N1CC2(CN(C(=O)Nc3c(C)noc3C)[C@H](CO)c3[nH]c4cc(OC)ccc4c32)C1,-1,12
10,COCC(=O)N1CC2(C1)CN(Cc1cc(F)ccc1F)[C@@H](CO)c1c2c2ccc(OC)cc2n1C,5,5.2
16,COc1ccc2c3c(n(C)c2c1)[C@@H](CO)N(C(=O)CN(C)C)CC31CN(Cc2cccnc2)C1,4,12
6,CCC(=O)N1C[C@@H]2[C@H](c3ccccc31)[C@H](CO)N2Cc1ccccc1OC,8,-2.1
8,CS(=O)(=O)Nc1ccc2c(c1)[C@@H]1C[C@@H](CC(=O)NCCc3ccccc3)O[C@@H](CO)[C@@H]1O2,-4,12
-6,Cc1noc(C)c1S(=O)(=O)Nc1ccc2c(c1)C(=O)N([C@H](C)CO)C[C@H](C)[C@H](CN(C)C(=O)Nc1cccc3ccccc13)OCCCC[C@H](C)O2,-4,-2.4
4,Cc1noc(C)c1NC(=O)N(C)C[C@H]1OCCCC[C@@H](C)Oc2ccc(N(C)C)cc2C(=O)N([C@@H](C)CO)C[C@@H]1C,4,0.1
0,C/C=C/c1ccc([C@@H]2[C@H](CO)N(Cc3cncnc3)C23CN(C(=O)CC)C3)cc1,0,-0.1
-3,Cc1noc(C)c1S(=O)(=O)N(C)C[C@H]1Oc2ccc(NC(=O)c3ccncc3)cc2CC(=O)N([C@H](C)CO)C[C@H]1C,-6,3.3
-2,CO[C@@H]1CN(C)C(=O)c2ccc(NS(C)(=O)=O)cc2OC[C@@H](C)N(C(=O)c2ccc3c(c2)OCO3)C[C@H]1C,-3,1.6
25,COc1cccc(-c2ccc3c(c2)[C@H]2[C@H](CCN2S(=O)(=O)c2cn(C)cn2)[C@@H](CO)N3)c1,22,2.5

Screens: PubChem, Broad Institute
